Compound activity from PubChem.
Six1-Eya2 inh: blocks human Six1 binding to Eya2 | Q15475+O00167 | AlphaScreen GST-Six1/His-Eya2 binding, biochemical; hits give low values; control for the full effect not named in the record | activity change, % (concentration not given with the values) | 360,000 tested, 0.56% active; in the data active = activity change below about -65%; inconclusive = about -30% to -65%; inactive = above about -30%; further: on the % scale 0 is the no-effect control and ±100 the full control effect
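AlphaScreen luminescence read after one hour at 37 °C in darkness. Pin-transferred compounds met GST-Six1 and His-Eya2 protein (5X stock 250 nM/500 nM) plus glutathione donor and Ni-chelate acceptor beads (5X, 50 ug/mL).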
TRPML1 ag: activates the human TRPML1 channel; Q9GZU1; TRPML1-expressing cells, Ca2+ dye fluorescence, FDSS; host cell line not named in the record; reference of the full effect not given here; activation, % (no concentration beside the values); 410,000 tested, 0.12% active; AID 624414; in the data active = activation above about 50%; inconclusive = about 30% to 50%; inactive = below about 30%; further: 0% is about no effect; the text of the record puts the active cut at 80%
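TRPML1-DL cells, Tet-induced overnight (~16 h, 37 degrees C), loaded 45-90 min at room temperature with Ca8 no-wash calcium dye plus quencher. FDSS fluorescence: 10 s baseline, compound pin-transfer, 110 s agonist read, then EC80 54-4 (4uM final) and 110 s antagonist read.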
TRPV1 potentiator: human TRPV1 potentiation | TRPV1-expressing cells, Fluo-8 calcium influx, capsaicin EC20 potentiation; host cell line not named in the record; control for the full effect not named in the record | potentiation, % at 8.33 µM | 320,000 tested, 0.02% active; active means potentiation above 80%; inconclusive means 30% to 80%; inactive means below 30%; further: 0% is about no effect
Target sequence (Q8NER1 whole entry, looked up): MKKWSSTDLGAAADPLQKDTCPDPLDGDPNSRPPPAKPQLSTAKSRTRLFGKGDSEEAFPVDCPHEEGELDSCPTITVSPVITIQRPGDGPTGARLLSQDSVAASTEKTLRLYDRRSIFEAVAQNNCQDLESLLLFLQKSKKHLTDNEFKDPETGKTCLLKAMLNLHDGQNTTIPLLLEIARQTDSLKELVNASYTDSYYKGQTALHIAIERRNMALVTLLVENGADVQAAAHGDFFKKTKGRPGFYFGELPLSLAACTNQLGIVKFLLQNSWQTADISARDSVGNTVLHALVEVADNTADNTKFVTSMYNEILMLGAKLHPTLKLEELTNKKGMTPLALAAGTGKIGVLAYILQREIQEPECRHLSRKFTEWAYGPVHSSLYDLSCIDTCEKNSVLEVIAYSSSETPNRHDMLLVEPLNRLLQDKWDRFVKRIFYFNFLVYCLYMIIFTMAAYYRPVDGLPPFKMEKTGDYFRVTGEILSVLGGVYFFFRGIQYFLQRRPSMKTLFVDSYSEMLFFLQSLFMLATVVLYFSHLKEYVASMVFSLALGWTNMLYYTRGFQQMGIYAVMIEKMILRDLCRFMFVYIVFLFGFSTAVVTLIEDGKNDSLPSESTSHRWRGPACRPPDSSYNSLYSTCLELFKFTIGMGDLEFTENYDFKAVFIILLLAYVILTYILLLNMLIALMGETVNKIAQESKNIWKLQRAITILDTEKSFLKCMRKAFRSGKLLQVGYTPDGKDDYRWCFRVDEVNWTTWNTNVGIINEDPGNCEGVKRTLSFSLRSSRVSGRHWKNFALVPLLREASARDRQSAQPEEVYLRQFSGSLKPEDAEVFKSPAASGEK
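TRPV1-expressing cells were cultured overnight at 35.5C and loaded with Fluo-8 calcium dye for 40 to 90 min at room temperature. After a 10 s baseline, compound was added and calcium influx was read kinetically for 3 min (ex 480/em 520 nm).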
TRPML1 inh: blocks the human TRPML1 channel; Q9GZU1; TRPML1-inducible cells, Ca2+ dye fluorescence, FDSS; hits give low values; inhibition of EC80 agonist-evoked calcium signal; activity change, negative = inhibition, % (concentration not given with the values); 390,000 tested, 0.02% active; AID 624415; in the data active means activity change below about -50%; inconclusive means about -30% to -50%; inactive means above about -30%;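 further: stimulus is agonist 54-4 at its EC80 concentration; on the % scale 0 is the no-effect control and ±100 the full control effect; compound concentration not given in the record; the text of the record puts the active cut at -80%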
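TRPML1-DL cells, Tet-induced overnight (~16 h, 37 °C) at 1,500 cells/well, were loaded with Ca8 no-wash dye plus quencher for 45-90 min at room temperature. Compounds were pinned during FDSS kinetic reading; agonist 54-4 at EC80 (4 uM final) then added.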
CtBP-E1A blk: inhibitors of CtBP/E1A interaction; AlphaScreen GST-E1A/His-CtBP binding, 1536-well; hits give low values; control for the full effect not named in the record; activity change, % (test concentration not listed); 340,000 tested, 0.49% active; AID 651724; in the data active means activity change below about -65%; inconclusive means about -30% to -65%; inactive means above about -30%; further: on the % scale 0 is the no-effect control and ±100 the full control effect; compound concentration not given in the record
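AlphaScreen with 125 nM GST-E1A and 125 nM His-CtBP (5X stocks) in Tris pH 8.0, 300 mM NaCl, BSA, Tween 20, TCEP. Compounds preincubated 2 h at 37 deg C, then glutathione donor/nickel acceptor beads added for 1 h at 37 deg C in dark.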
D2 PAM: human D2 receptor positive allosteric modulation; DiscoveRx D2 beta-arrestin cells, luminescence, 90 min; 100% = 57 uM dopamine signal; AID 624464; P14416; 360,000 tested, 0.23% active; potentiation, % (test concentration not listed); active = potentiation of 50% or more; inconclusive = 30% to 50%; inactive = 30% or less;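 further: compound concentration not given in the record; tested on top of an EC20 dose of dopamine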
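PathHunter beta-arrestin assay in DiscoveRx D2 cells. Compounds were added with an EC20 of dopamine (50 nM final) for 90 min at 37 deg C. Luminescence was read 1 h after detection reagent, with 57 uM dopamine as the EC100 control.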
* hit, by the source's call; ? = inconclusive; · = not tested or not shown; & = joins results of further samples.

entry | SMILES | Six1-Eya2 inh | TRPML1 ag | TRPV1 potentiator
1 | Cc1ccc(C)c(-n2c(Cc3cc(=O)[nH]c(=O)[nH]3)nnc2SC(C)C)c1 | 20.9 | -0.7 | ·
2 | Cc1cc(=O)oc2cc(OCC(=O)NCCc3ccccc3)ccc12 | -20.4 | 0.2 | -0.3
3 | CC(=O)N(C(C)=O)c1c(N2CCOCC2)c2ccccc2oc1=O | 3.4 | -0.1 | 0.9
4 | COc1ccc(C2=NN(C(=O)CCC(=O)O)C(c3ccc(OC)c(OC)c3)C2)cc1 (stereo unspecified) | 23.1 | 0.0 | -3.1
5 | O=[N+]([O-])c1ccccc1OCCNCc1ccccc1 | -4.0 | · | 6.9
6 | CCOC(=O)c1c(-c2ccccc2)csc1NC(=O)COc1ccc2c(C)cc(=O)oc2c1 | -4.8 | 0.8 | 25.7
7 | CC(c1nc2ccccc2o1)N1C(=O)c2ccccc2C1=O (stereo unspecified) | 7.3 | -0.2 | 6.3
8 | O=C(OCc1cn([C@@H]2CN(Cc3cccs3)[C@@H](c3ccccc3)C[C@H]2O)nn1)c1ccccc1 | 5.1 | 0.5 | ·
9 | CCC1Nc2ncnc(N3CCCCC3)c2N(Cc2ccccc2)C1=O (stereo unspecified) | 0.1 | -0.5 | 22.5
10 | COC(=O)CC1C(=O)NCCN1C(=O)c1cc([N+](=O)[O-])ccc1Cl (stereo unspecified) | 6.4 | 0.0 | 4.9
11 | CCOC(=O)N1CCN(c2cc(=O)n(Cc3ccc(F)cc3)c(=O)[nH]2)CC1 | 0.4 | 0.3 | -0.6
12 | O=C(O)CC1S/C(=N\N=C2CCCCCCC2)N(c2ccccc2)C1=O (stereo unspecified) | 1.1 | 0.1 | 8.5
13 | Cc1ccc2c(c1)[C@@H]1CN(C)CC[C@@H]1N2S(=O)(=O)c1ccc([N+](=O)[O-])cc1 | -11.9 | 1.8 | 10.5
14 | COc1cc(Nc2c3ccccc3nc3ccccc23)cc(OC)c1OC | -20.5 | -1.1 | 14.7
15 | COc1ccc(C(=O)NC2CCN(C(=S)Nc3cc(C)ccc3C)CC2)cc1 | 1.2 | -0.2 | 0.3

entry | TRPML1 inh | CtBP-E1A blk | D2 PAM
1 | 13.8 | 0.0 | -0.2
2 | 0.9 | -1.7 | -2.7
3 | 32.5 | 7.0 | -9.6
4 | 3.7 | -11.6 | -3.6
5 | · | · | -76.2
6 | -10.1 | 0.0 | -16.7
7 | -1.1 | 11.8 | 8.8
8 | -13.8 | -4.2 | 2.1
9 | 14.4 | -0.1 | -15.0
10 | 0.6 | -1.2 | -1.5
11 | -23.6 | -11.2 | -8.9
12 | -1.5 | · | -0.3
13 | 0.2 | -8.8 | -7.4
14 | 6.5 | -23.7 | -10.8
15 | -9.5 | 7.4 | 0.9

More compounds
entry | SMILES | Six1-Eya2 inh | TRPML1 ag | TRPV1 potentiator
16 | CCn1c(Cc2c(C)[nH]c3ccccc23)nnc1SCC(=O)NCc1ccco1 | -8.3 | -0.9 | 18.3
17 | CC1CCN(Cc2c(C(=O)N/N=C/c3ccc(OC(C)C)cc3)nnn2-c2nonc2N)CC1 | -10.1 | 2.9 | 3.1
18 | COc1ccc(NC(=O)CCC(=O)Nc2nnc(C3CCCCC3)s2)c(OC)c1 | -8.8 | 0.4 | 10.2
19 | O=C(Cc1csc2ccccc12)NCC1CC1 | 4.0 | -1.0 | ·
20 | COc1cc2c(cc1NS(=O)(=O)N1CCCC1)oc1ccccc12 | -2.6 | -0.5 | -1.4
21 | Cc1cc(C(=O)COC(=O)Cn2c(C(F)(F)F)nc3ccccc32)c(C)n1Cc1ccco1 | -7.6 | 0.4 | 6.3
22 | O=C(C1CCN(S(=O)(=O)c2ccc3c(c2)OCCO3)CC1)N1CCc2ccccc21 | -4.6 | 3.6 | -6.9
23 | OC[C@@H]1CN(Cc2ccc3c(c2)OCO3)C[C@H](n2cnc3c(NC4CCCC4)ncnc32)O1 | -1.0 | -0.5 | ·
24 | Cc1ccc(S(=O)(=O)NCCC(C)C)cc1[N+](=O)[O-] | 0.4 | 2.3 | 3.4
25 | CCO[C@@H]1OC(C(=O)N2CCN(Cc3ccc4c(c3)OCO4)CC2)=C[C@H](C2CC2)[C@H]1CCCO | -3.4 | 0.2 | -16.7
26 | COc1ccc(NC(=O)CN(C)C(=O)c2ccc(N3CCCC3)c([N+](=O)[O-])c2)cc1 | -3.9 | 0.1 | -8.7
27 | NC(c1ccccc1)c1cccnc1 (stereo unspecified) | -7.5 | -0.5 | -2.0
28 | O=C(CN1CCCC1c1cccs1)Nc1cc(S(=O)(=O)N2CCCCC2)ccc1Cl (stereo unspecified) | -0.1 | 0.5 | ·
29 | Cc1cccc(C(=O)OCC(=O)c2csc(N3CCCCC3)n2)c1[N+](=O)[O-] | -18.3 | -0.9 | ·
30 | Cn1nc(C(=O)N2CCN(c3ccccc3F)CC2)c2c1-c1ccccc1S(=O)(=O)C2 | 6.6 | -1.1&1.0 | ?

entry | TRPML1 inh | CtBP-E1A blk | D2 PAM
16 | -10.1 | -9.5 | -27.5
17 | 10.9 | 12.9 | 6.6
18 | 25.7 | -2.7 | -7.2
19 | · | 4.1 | -7.1
20 | 3.1 | 8.0 | -13.7
21 | -6.1 | 7.8 | -5.0
22 | 11.7 | -3.0 | -0.2
23 | · | 1.9 | -7.0
24 | -2.0 | 1.4 | -5.8
25 | -4.0 | -2.4 | -9.2
26 | 16.0 | -1.1 | -22.0
27 | 12.4 | 8.8 | 0.8
28 | 75.8 | · | -14.1
29 | -15.3 | · | -7.5
30 | -4.3&5.8 | -4.2 | -5.5

In the list so far, these have a furan ring, fused or not.
entry | SMILES | Six1-Eya2 inh | TRPML1 ag | TRPV1 potentiator
16 | CCn1c(Cc2c(C)[nH]c3ccccc23)nnc1SCC(=O)NCc1ccco1 | -8.3 | -0.9 | 18.3
20 | COc1cc2c(cc1NS(=O)(=O)N1CCCC1)oc1ccccc12 | -2.6 | -0.5 | -1.4
21 | Cc1cc(C(=O)COC(=O)Cn2c(C(F)(F)F)nc3ccccc32)c(C)n1Cc1ccco1 | -7.6 | 0.4 | 6.3

entry | TRPML1 inh | CtBP-E1A blk | D2 PAM
16 | -10.1 | -9.5 | -27.5
20 | 3.1 | 8.0 | -13.7
21 | -6.1 | 7.8 | -5.0

Other compounds
entry | SMILES | Six1-Eya2 inh | TRPML1 ag | TRPV1 potentiator
31 | COc1cccc(CCc2nnc(N)s2)c1 | 4.8 | -0.4 | 4.1
32 | CCCNC(=O)C1(C)CCCN(C(=O)c2ccc(OC(F)F)cc2)C1 (stereo unspecified) | 9.7 | -0.2 | ·
33 | CC(C)n1c(CSCc2ccc(Cl)cc2Cl)n[nH]c1=S | 5.6 | 1.7 | 7.8
34 | COCCn1c(SCC(=O)NC2CCCC(C)C2C)nc2ccccc2c1=O (stereo unspecified) | -6.9 | 0.6 | -2.0
35 | Cc1ccc(-n2ncc(C#N)c2N)cc1 | 11.9 | 1.7 | -14.8
36 | COc1cc(/C=C/c2nc(N)nc(-c3ccccc3O)n2)cc(OC)c1OC | -24.1 | 0.3 | -5.5
37 | Cc1onc(-c2ccccc2)c1C(=O)N(Cc1ccccc1)C(C)C | -0.4 | 4.4 | -13.6
38 | COc1ccc(OCC(O)CNc2ccc(Br)cc2)cc1 (stereo unspecified) | -13.0 | 1.2 | -10.1
39 | COc1cccc(CN2CC(C(=O)NCCCn3cccn3)CCC2=O)c1 (stereo unspecified) | 0.5 | 0.3 | 10.4
40 | O=S(=O)(NC1CCCCC1)c1ccc(S(=O)(=O)N2CCN3CCCC3C2)cc1 (stereo unspecified) | 1.9 | 2.8 | -6.6
41 | Cc1ccc(NC2=NCC(=O)N2C2CCCC2)cc1 | 1.2 | 0.0 | -0.7
42 | C/C(CC(=O)Nc1ccc([N+](=O)[O-])cc1)=N\NC(=O)c1ccccc1O | 0.1 | -0.6 | -32.3
43 | CCCCNc1c(-c2ccc(SC(C)CC)c(OC)c2)nc2ccc(Cl)cn12 (stereo unspecified) | 10.6 | -0.7 | ·
44 | COC(=O)c1ccc(N=Nc2ccccc2)cc1 | -23.5 | -1.2 | 0.3
45 | COc1ccc(N2CCN(C(=O)COc3ccc4ccccc4c3)CC2)cc1 | -4.0 | -1.8 | -9.8

entry | TRPML1 inh | CtBP-E1A blk | D2 PAM
31 | -11.6 | · | -18.6
32 | · | -7.6 | -3.7
33 | 1.9 | 1.6 | -13.6
34 | 3.5 | 5.2 | -10.1
35 | 18.4 | 1.7 | -3.3
36 | -0.6 | -12.7 | -7.0
37 | 39.7 | · | -7.3
38 | 10.7 | -3.7 | -1.6
39 | 12.0 | 1.9 | 0.3
40 | -6.8 | -0.5 | -6.5
41 | 16.1 | -1.1 | -2.7
42 | -21.2 | · | -20.1
43 | 28.8 | 13.1 | -13.9
44 | -6.0 | -28.4 | -5.3
45 | 7.4 | 3.4 | 22.0

(next part)
entry | SMILES | Six1-Eya2 inh | TRPML1 ag | TRPV1 potentiator
46 | CNC(=O)c1[nH]cnc1C(=O)N[C@@H](Cc1ccccc1)C(=O)OC(C)(C)C | -15.7 | -0.7 | 9.5
47 | COc1ccc(C(=O)Oc2cccc3cccnc23)cc1[N+](=O)[O-] | -88.2* | -0.5 | -1.5
48 | CC1Cc2cc(/C(O)=C3/C(=O)C(=O)N(CCCn4ccnc4)C3c3cccc([N+](=O)[O-])c3)ccc2O1 (stereo unspecified) | -1.5 | -0.6 | 10.0
49 | NC(=O)c1cccn1-c1ncc(C(F)(F)F)cc1Cl | 3.4 | 1.4 | -5.2
50 | C=CCSc1ccccc1C(=O)Nc1ncn[nH]1 | -17.8 | 0.1 | 4.6
51 | O=C(Nc1ccc([N+](=O)[O-])cc1)c1cc(Cl)sc1Cl | 3.6 | -0.1 | -26.7
52 | CC(C)(C)C(=O)O/N=C(\N)c1ccc(Oc2cc(Cl)cc(Cl)c2)c([N+](=O)[O-])c1 | -14.7 | 1.4 | 3.9
53 | CCOC(=O)C1CCCN(C(=O)c2ccc3ccccc3c2)CC1 (stereo unspecified) | 7.5 | 0.2 | ·
54 | O=[N+]([O-])c1cc([N+](=O)[O-])c(Oc2cc(F)ccc2F)cc1NN1CCCCC1 | -11.6 | 1.2 | 13.8
55 | CC1=C(C(=O)N(C(C)C)C(C)C)CC(CC(=O)NCCCCc2ccccc2)C(=O)N1CCC1=CCCCC1 (stereo unspecified) | -6.7 | -0.3 | ·
56 | CCCN(CC(=O)Nc1ccccc1OC)C(=O)CCC(=O)c1ccc(OCC)cc1 | 0.3 | -1.0 | 2.8

entry | TRPML1 inh | CtBP-E1A blk | D2 PAM
46 | -11.0 | -0.2 | -2.9
47 | 7.5 | -72.4* | -2.9
48 | 8.7 | -9.9 | -9.0
49 | 4.4 | -1.5 | 3.5
50 | -0.7 | -24.5 | -6.4
51 | 9.0 | · | -6.5
52 | -9.8 | -3.8 | -0.6
53 | -3.6 | 9.9 | -9.8
54 | -1.8 | -5.7 | -1.2
55 | · | -5.3 | -4.5
56 | 8.2 | · | -9.7

Hits appear at their usual frequency, and some 0.95% of all compounds hit somewhere here.
